PKD1 inh: PKD1 (human) kinase inhibition; inhibition, %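 (about 10 µM by stock and volumes)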; AID 797; 0.056% of 200,000 active; PKD1 kinase fluorescence polarization assay; Q15139;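 active means inhibition of 50% or more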;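 further: controls were vehicle for no effect and a reference inhibitor for full effect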
Target sequence (Q15139 whole entry, looked up): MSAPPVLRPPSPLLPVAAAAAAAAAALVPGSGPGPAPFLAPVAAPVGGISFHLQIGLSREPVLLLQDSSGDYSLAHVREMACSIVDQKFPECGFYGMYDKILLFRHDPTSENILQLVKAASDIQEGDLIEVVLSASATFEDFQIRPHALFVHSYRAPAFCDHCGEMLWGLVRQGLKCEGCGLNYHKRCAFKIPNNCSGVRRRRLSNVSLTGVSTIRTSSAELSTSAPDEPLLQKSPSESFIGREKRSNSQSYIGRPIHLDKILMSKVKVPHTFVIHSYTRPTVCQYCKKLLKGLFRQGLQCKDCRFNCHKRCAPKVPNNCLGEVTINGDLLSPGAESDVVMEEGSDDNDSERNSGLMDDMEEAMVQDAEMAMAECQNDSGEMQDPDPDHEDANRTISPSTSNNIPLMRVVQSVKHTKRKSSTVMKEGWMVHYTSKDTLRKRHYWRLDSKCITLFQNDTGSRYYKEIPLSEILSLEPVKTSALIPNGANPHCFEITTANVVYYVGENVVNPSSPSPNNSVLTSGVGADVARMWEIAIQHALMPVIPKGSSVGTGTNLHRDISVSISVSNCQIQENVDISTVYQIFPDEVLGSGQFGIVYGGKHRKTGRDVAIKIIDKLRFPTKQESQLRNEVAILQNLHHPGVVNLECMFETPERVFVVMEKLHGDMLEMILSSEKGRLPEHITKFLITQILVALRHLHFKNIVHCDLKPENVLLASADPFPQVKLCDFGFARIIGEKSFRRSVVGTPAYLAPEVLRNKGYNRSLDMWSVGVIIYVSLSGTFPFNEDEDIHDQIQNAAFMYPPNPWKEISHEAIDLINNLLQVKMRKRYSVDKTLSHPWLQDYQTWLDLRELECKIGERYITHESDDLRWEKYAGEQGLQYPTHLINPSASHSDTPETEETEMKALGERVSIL
INS promoter inh: TRM-6 insulin promoter activity inhibition. TRM-6 cells (human fetal islet line), insulin promoter-eGFP reporter, imaging; reporter expression induced with tamoxifen. inhibition, % at 2 µM. 0.9% of 130,000 active. AID 1273;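 active means inhibition above the mean plus 3 SD, with well images judged a real hit on visual review, cut at about 60% in these data, passing the limit was not always enough; inconclusive means inhibition over the cutoff but images rejected on review; inactive means inhibition not above the cutoff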
RGS16-Gao: RGS16-Galphao interaction regulator (human). bead-based flow cytometry RGS16-Galphao binding, fluorescence; actives lie on both sides. 0.38% of 220,000 active. binding response (% of control), % at 10 µM. O15492+P09471. AID 1441;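 active means below 25% or above 175%, edge rows of some plates excepted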;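 further: Galphao activated by GDP with aluminum fluoride before binding; 100% = wells without compound and 0% = beads without RGS; some results beyond the cut were filed as inactive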
HSV replic up: HSV replication enhancement; maximum fold increase; HSV replication augmentation in cells, fold increase; 0.005% of 220,000 active;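 active means peak rise of 1.5-fold or more in the series; inconclusive means self-fluorescent or not available for retest; tested in PC3 cells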;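 further: first round at 10 µM; read as green reporter fluorescence; hits show the peak of a series up to 25 µM; 1 = signal of infected wells without compound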
GALR2 ag: agonists of human galanin receptor 2 (GALR2); O43603; GALR2-expressing cells, agonist activation read-out; 0.48% of 140,000 active; activation, %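 (tested at 5 µM)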;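 active means above mean plus 3 SD of all compounds, about 5% in these data, not always enough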;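 further: 0% = vehicle buffer wells and 100% = reference agonist at full effect; tested in CHO reporter cells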
INS promoter inh cell count: also measured in INS promoter inh; calls as there; normalized cell count, %; measured here: cell count, toxicity; reference of the scale not given here;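 cells exposed to compound for 48 h; stained nuclei by imaging scaled within each plate; lower means fewer cells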
HSV replic up primary fold: further read-out of HSV replic up, marked with its call; fold increase; compound at 10 µM; measured here: primary screen fold increase 10 uM; tested in PC3 cells;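 GFP signal in the first replicate; 1 = infected wells without compound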
Starred values were filed as active, the others as inactive; i = inactive; ? = inconclusive; . = no result given.

SMILES	PKD1 inh	INS promoter inh	INS promoter inh cell count	RGS16-Gao	HSV replic up	HSV replic up primary fold	GALR2 ag
CC1(C)Cc2ccccc2-c2nc3ccccc3c(=O)n21	-9.6	.	.	105.3	i	0.99	-2.0
CC(=O)Nc1ccc(OCC(=O)NCc2ccc3c(c2)OCO3)cc1	-1.4	.	.	94.4	i	0.99	.
CC(=O)Nc1ccc(Br)cc1C(=O)C(=O)O	2.5	.	.	92.9	i	1.21	0.0
O=C(CN1CCN(c2ccc(F)cc2)CC1)Nc1ccc(F)c(F)c1	3.8	-54.5	104.3	97.7	i	1.03	-1.3
Nc1ccc2nc3c(c(Cl)c2c1)CCCC3	.	.	.	98.8	i	1.05	.
CC1CCc2sc(C(=O)N=Nc3c(O)[nH]c4ccccc34)cc2C1 (configuration not stated)	-9.8	-7.9	67.1	117.8	i	1.04	0.0
CCN(c1ccccc1)S(=O)(=O)c1ccc(OC)c(NS(=O)(=O)c2cccs2)c1	-2.9	.	.	104.5	i	0.98	.
CC1(C)CC(=O)C=C(NC2CC(C)(C)NC(C)(C)C2)C1	-0.5	.	.	101.6	i	0.85	-1.6
Cc1ccc(C(=O)NCC(=O)OCC(=O)NC2CCCC(C)C2C)s1 (configuration not stated)	-5.2	-27.3	100.0	107.6	i	0.88	.
COC(=O)CSc1nc2ccc(N)cc2s1	-11.4	-5.9	74.2	101.8	i	0.94	.
CC1(C)CC2(CCO1)CNC(=O)O2 (configuration not stated)	-4.2	.	.	102.5	i	1.01	-2.9
O=C(CCCCn1c(=O)[nH]c2ccsc2c1=O)NCCc1ccccc1	-1.4	.	.	103.9	i	0.98	.
CCOC(=O)N1CCC(Nc2nc(OC)nc(OC)n2)CC1	3.1	40.0	68.2	100.6	i	0.98	-2.4
OC(CNCc1ccccc1)Cn1ccc2ccccc21 (configuration not stated)	-1.7	-16.0	80.1	109.2	i	0.78	0.5
O=C1c2ccccc2C(=O)N1CCCc1c[nH]c2ccccc12	5.4	-94.1	112.3	96.0	i	0.85	-0.6
O=C(NC1CCCC1)C1CCC(=O)N1C1CCCC1 (configuration not stated)	5.5	6.2	76.0	98.9	i	0.89	-0.6
O=C(Nc1cc(C(F)(F)F)ccc1N1CCOCC1)c1cccnc1Cl	-1.1	-60.7	86.8	109.5	i	0.997	-2.6
O=C(NCC1CC1)c1ccc(Nc2nc3ccc(Br)cc3[nH]2)cc1	8.7	-6.7	69.3	106.0	i	0.8	-0.5
CC1CCCCN1C(=O)c1cccc(NC(=O)c2ccccc2)c1 (configuration not stated)	-7.0	.	.	116.5	i	0.86	.
O=C(COC(=O)c1ccc(O)cc1)Nc1cccc(S(=O)(=O)N2CCCCC2)c1	.	.	.	101.9	i	1.16	.
COc1ccccc1/C=N/NC(=O)c1nnn(-c2nonc2N)c1CSC1=NCCS1	-5.3	.	.	102.8	i	0.95	-0.9
O=C(/C=N/O)Nc1ccccc1	-3.6	0.0	122.5	98.0	i	1.06	0.7
COC(=O)C1CCN(C(c2ccc(OC)c(OC)c2)c2sc3nc(C)nn3c2O)CC1 (configuration not stated)	-13.1	.	.	100.9	i	0.85	.
Cc1ccc(C(=O)N/C(=C\c2ccccc2)C(=O)NCc2cccnc2)cc1	-2.8	.	.	96.4	i	1	.
Cc1ccc(C)c(N2N=C(C(=O)Nc3ccc(S(=O)(=O)N4CCCC4)cc3)CCC2=O)c1	.	.	.	103.0	i	0.79	.
Cc1ccc(C)c(NC(=O)CCc2ccc(S(=O)(=O)NC3CCCCC3)cc2)c1	-3.8	-70.0	86.3	84.7	i	1.03	-0.8
NS(=O)(=O)c1ccc(NC(=S)NC(=O)c2ccc3c(c2)OCO3)cc1	3.3	.	.	95.5	i	1.04	.
CN1CCN(S(=O)(=O)c2ccc(NC(=O)COc3ccccc3)cc2)CC1	0.4	-23.1	95.4	121.4	.	.	.
O=C(NCc1ccc2c(c1)OCO2)C1CCCN1S(=O)(=O)c1ccc(F)cc1 (configuration not stated)	.	.	.	108.7	i	1.02	.
COC(=O)CNC(=O)CSc1nnc(C)c(=O)[nH]1	-2.0	.	.	101.9	i	1.18	-1.3
COc1cc(OC)c(C2N(c3ccc(Cl)cc3)C(=O)C3CCCN32)cc1OC (configuration not stated)	-1.1	.	.	104.9	i	1.18	-1.0
O=C(c1cc2nc(-c3ccco3)cc(C(F)(F)F)n2n1)N1CCCc2ccccc21	-7.7	-44.4	103.7	100.1	i	1.11	0.6
CN(C)C(CNC(=O)CSc1nnc(-c2ccco2)o1)c1ccccc1 (configuration not stated)	-2.6	.	.	101.7	i	0.91	1.2
COc1ccc(-n2c(=S)[nH]c3cc(C(=O)O)ccc3c2=O)cc1	-2.4	.	.	98.7	i	0.91	.
CC(=O)N(C)c1ccc(N=Nc2c(C)[nH]n(C(N)=S)c2=O)cc1	1.9	31.2	70.9	100.0	i	0.89	.
COc1ccc(C[C@H]2c3cc(O)c(OC)cc3CC[N+]2(C)[O-])cc1O (some centres not stated)	.	.	.	97.0	i	0.88	.

4 compounds from above, sorted by formula weight, smallest number first.
SMILES	PKD1 inh	INS promoter inh	INS promoter inh cell count	RGS16-Gao	HSV replic up	HSV replic up primary fold	GALR2 ag
COc1ccc(C[C@H]2c3cc(O)c(OC)cc3CC[N+]2(C)[O-])cc1O (some centres not stated)	.	.	.	97.0	i	0.88	.
CN(C)C(CNC(=O)CSc1nnc(-c2ccco2)o1)c1ccccc1 (configuration not stated)	-2.6	.	.	101.7	i	0.91	1.2
O=C(NCc1ccc2c(c1)OCO2)C1CCCN1S(=O)(=O)c1ccc(F)cc1 (configuration not stated)	.	.	.	108.7	i	1.02	.
O=C(c1cc2nc(-c3ccco3)cc(C(F)(F)F)n2n1)N1CCCc2ccccc21	-7.7	-44.4	103.7	100.1	i	1.11	0.6

The results go on.
SMILES	PKD1 inh	INS promoter inh	INS promoter inh cell count	RGS16-Gao	HSV replic up	HSV replic up primary fold	GALR2 ag
CCCc1cc(C(=O)NCCc2ccc(OC)c(OC)c2)no1	2.8	.	.	106.1	i	1	-2.4
Cc1cn(-c2cc(C(=O)Nc3ccc(C)c(NC(=O)C(=O)c4c[nH]c5ccccc45)c3)cc(C(F)(F)F)c2)cn1	.	.	.	100.3	i	0.87	.
O=C(COC(=O)Cc1cn2ccsc2n1)Nc1nc2ccccc2s1	-7.0	.	.	88.4	i	0.917	-1.1
CCOC(=O)C1=NNC2(c3ccc(C)cc3)C(=O)N(c3ccc(Cl)cc3)C(=O)C12 (configuration not stated)	1.0	-30.6	102.4	99.3	i	0.97	1.1
C=CCn1c(COc2ccccc2F)nnc1SCC(=O)N1CC(=O)Nc2ccccc21	-8.6	-41.7	127.5	97.8	i	0.62	-1.8
COc1ccc(-c2nn(-c3ccccc3)cc2C(=O)N2CCOCC2)cc1	-6.8	.	.	100.6	.	.	-1.2
COc1ccc(C(C)=O)cc1CSc1nc(C)cc(C)n1	1.1	11.1	92.5	100.5	i	0.9	.
Cc1ccc(S(=O)(=O)C(C#N)c2nc3ccccc3nc2N2CCCC2)cc1 (configuration not stated)	-6.8	18.2	120.1	92.2	?	.	-0.4
COc1cccc(CNCCO)c1OCc1ccccc1	-4.8	.	.	100.9	i	0.8	.
CSc1ncccc1C(=O)OCC(=O)Nc1cc(C(F)(F)F)ccc1N1CCOCC1	-2.1	.	.	103.3	i	0.94	-0.4
CC(C)OC(=O)c1cc2c(ccn2C)n1CC(=O)N(Cc1ccccc1)c1ccc(F)cc1	1.0	-13.9	63.8	126.0	i	0.78	0.6
O=C(Oc1cccc(NC(=O)c2ccco2)c1)c1cccc(S(=O)(=O)N2CCCCC2)c1	-6.5	-45.2	94.8	117.4	i	0.93	-1.8
COc1ccc(C(=O)/C(C#N)=N/Nc2ccc([N+](=O)[O-])cc2)cc1	1.0	.	.	104.3	i	0.66	.
O=C(N/C(=C/c1cn(-c2ccccc2)nc1-c1ccccc1)C(=O)N1CCOCC1)c1ccc(Cl)cc1Cl	-3.2	-41.7	142.4	106.4	i	0.9	0.2
CCOc1ccccc1C(=O)Nc1nnc(C(C)C)s1	-2.0	.	.	96.4	i	0.96	-2.5
CS/C(=N\NC(N)=O)c1ccccc1	-2.8	21.1	59.7	124.4	i	1.06	-1.3
O=C(OCc1nnc(-c2ccccc2)o1)c1cn(-c2ccccc2)nc1-c1ccccc1	-1.1	.	.	105.7	i	0.9	-0.9
Cc1cc(C)cc(NC(=O)C/C(N)=N/O)c1	-4.7	-37.5	103.8	101.9	i	1.03	-1.2
COc1cc(/C=C2\SC(=O)N(Cc3ccc(F)cc3)C2=O)cc([N+](=O)[O-])c1O	-5.9	.	.	104.5	i	0.96	.
O=C(Nc1ccc2nc(-c3ccccn3)c(-c3ccccn3)nc2c1)N1CCOCC1	3.9	53.9	137.0	105.3	i	1.05	.
Cc1cccc(C2N(c3nccs3)C(=O)C3CCCN32)c1 (configuration not stated)	-6.8	.	.	111.7	i	1.07	-2.9
Cc1cccc(/C=N/c2sc3c(c2C#N)CCN(Cc2ccccc2)C3)c1O	-5.6	-43.3	135.0	109.1	i	1.23	-0.9
CCOC(=O)c1c(C)n(C)c2ccc(OC)c(NC(=O)CN3CCC(C(=O)OCC)CC3)c12	.	.	.	111.9	i	1.04	.
O=S(=O)(Nc1ccccc1Cl)c1ccc(F)cc1	-7.2	16.1	172.8	98.8	i	1.01	-2.4
CCn1c(CCn2c3ccccc3c3ccccc32)n[nH]c1=S	-2.9	.	.	94.2	i	1.02	0.9
O=C(c1cccc([N+](=O)[O-])c1)c1ccc2c(c1)OCCOCCOCCOCCO2	.	.	.	104.3	i	1.15	.
Cc1cccc2cc(CN(CCN3CCCC3)C(=O)NC3CCCCC3)c(=O)[nH]c12	4.2	.	.	95.9	i	0.95	-1.7
O=C(N/N=C/c1ccccc1C(=O)O)c1ccc(COc2cccc3cccnc23)cc1	-1.2	60.0	86.0	104.8	i	1.13	.
CCOC(=O)Cn1nc(C)n(-c2ccc(C)cc2)c1=O	-13.3	-50.0	105.1	93.0	i	0.83	-2.8
Cc1nn(-c2ccc(Cl)cc2)c(N)c1C(O)(CSc1nccn1C)C(F)(F)F (configuration not stated)	-15.9	0.0	93.2	101.4	i	1.23	-1.7
CC(=O)N1CCC(=NNC(=O)CSc2cc(C)c(Br)cc2C)CC1	0.0	.	.	99.9	i	0.97	-0.5
CC(C)Sc1nc2ccccc2n1CC(=O)NCc1ccc2c(c1)OCO2	-9.4	91.4*	84.0*	91.3	i	0.95	-4.2
CCOC(=O)C1=C(C)Nc2ccccc2N=C1NC(=O)/C=C/c1ccc(OC)cc1OC	9.8	-41.2	78.9	99.7	i	1.21	.
O=S(=O)(/N=C(/Nc1cc(N2CCOCC2)ncn1)c1ccccc1)c1ccccc1	4.4	34.9	142.3	99.3	i	0.973	-2.2
O=c1c2ccccc2nc(SCc2cccc(F)c2)n1Cc1ccco1	-4.0	-58.1	224.0	109.0	i	0.78	-2.1
O=C(O)c1c[nH]c2cc(C(F)(F)F)ccc2c1=O	-3.3	27.0	51.1	98.8	i	0.91	-1.1
CN(C)c1ccc(NC(=O)c2sc(SCC(=O)Nc3nccs3)nc2N)cc1	-5.8	.	.	99.0	i	0.88	-2.1
O=C(N/N=C1\CCSC1)c1cc(Cl)ccc1O	8.8	2.9	105.7	102.9	i	0.9	.

Screens: PubChem, several laboratories
